Compound activity from PubChem BioAssay.
D2 PAM = Beta-Arrestin HTS for Positive Allosteric Modulators of the Human D2 Dopamine Receptor: Potentiators | 360,000 tested, 0.23% active | D(2) dopamine receptor (Homo sapiens), P14416 | AID 624464, 2012 | DiscoveRx D2 beta-arrestin cells, luminescence, 90 min; 100% = 57 uM dopamine signal | potentiation, % (concentration not given with the values); active = potentiation of 50% or more; inconclusive = 30% to 50%; inactive = 30% or less;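 also: compound concentration not given in the record; tested on top of an EC20 dose of dopamine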
Target sequence (P14416 whole entry, looked up): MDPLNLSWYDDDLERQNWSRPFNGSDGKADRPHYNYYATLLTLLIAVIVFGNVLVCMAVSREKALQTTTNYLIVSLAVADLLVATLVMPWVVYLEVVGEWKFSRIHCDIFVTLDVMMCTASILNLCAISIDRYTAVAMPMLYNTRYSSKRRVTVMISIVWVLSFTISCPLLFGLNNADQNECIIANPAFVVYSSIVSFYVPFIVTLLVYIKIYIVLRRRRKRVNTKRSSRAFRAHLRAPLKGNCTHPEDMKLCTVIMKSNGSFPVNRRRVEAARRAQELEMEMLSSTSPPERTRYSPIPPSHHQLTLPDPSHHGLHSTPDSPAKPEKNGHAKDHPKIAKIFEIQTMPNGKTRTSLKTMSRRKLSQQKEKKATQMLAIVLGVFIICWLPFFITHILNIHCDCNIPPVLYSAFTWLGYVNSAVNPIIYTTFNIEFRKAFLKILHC
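PathHunter D2 cells, attached overnight at 37 deg C, received compound in DMSO plus dopamine at EC20 (50 nM final) for 90 min at 37 deg C. Beta-arrestin recruitment was read as luminescence after 1 h with detection reagent at ambient temperature.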
gsp ag = qHTS for Agonist of gsp, the Etiologic Mutation Responsible for Fibrous Dysplasia/McCune-Albright Syndrome: qHTS | gsp mutant cells, cAMP HTRF, 30 min; control for the full effect not named in the record | Potency, µM (highest dose often 76.9 µM), without a hit: at the highest dose activation (cAMP increase), actives largely listed as activators | 340,000 tested, 0.13% active | AID 624287, 2012; active = well fitted activation curve with a large enough effect; inconclusive = small, poorly fitted or top-dose-only effect, or another doubt; inactive = no such curve, though single readings can be large or run the other way; cell line not stated here;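 also: phosphodiesterase inhibitor Ro 20-1724 added with compounds to block cAMP breakdown; potency is read from the fitted curve at half-maximal effect; nearly all actives have a fitted effect of over 60% in size; about a fifth of the inactives were tested at one dose only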
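Cells in DMEM/10% FBS with G418 were pretreated with compounds in DMSO plus […] (300 uM stock) for 30 min at 37C. cAMP was measured by HTRF (cAMP-d2 plus anti-cAMP antibody-K) after 30 min at room temperature.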
Six1-Eya2 inh = qHTS Assay for Inhibitors of the Six1/Eya2 Interaction | Homeobox protein SIX1 (Homo sapiens) + Protein phosphatase EYA2 (Homo sapiens), … | AlphaScreen GST-Six1/His-Eya2 binding, biochemical; stronger effect = lower value; control for the full effect not named in the record | activity change, % (no concentration beside the values) | 360,000 tested, 0.56% active; in the data active = activity change below about -65%; inconclusive = about -30% to -65%; inactive = above about -30%; also: % is scaled to controls: 0 for no effect and ±100 for the full control effect; compound concentration not given in the record
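Six1/Eya2 binding was read as AlphaScreen signal after compounds were pinned into GST-Six1 plus His-tagged Eya2 (5X stock 250/500 nM) in pH 8.0 Tris/NaCl/TCEP buffer, beads added, then incubated 1 h, 37 C, dark.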
D2 agonist = Beta-Arrestin HTS for Positive Allosteric Modulators of the Human D2 Dopamine Receptor: Agonists | AID 624465, 2012 | DiscoveRx PathHunter D2 beta-arrestin, luminescence, 90 min; 100% = 57 uM dopamine signal | 360,000 tested, 0.084% active | activation, % (no concentration beside the values); in the data active = activation above about 40%; inconclusive = about 15% to 40%; inactive = below about 15%; also: compound concentration not given in the record; the text of the record calls up to 30% inactive
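DiscoveRx PathHunter D2 beta-arrestin cells (2,100/well) attached overnight, then compound-stimulated 90 min at 37 C in HBSS/10 mM HEPES/0.1% Tween-20 buffer; beta-galactosidase complementation read by luminescence after 1 h at ambient temperature. Dopamine 57 uM final (EC100) as control.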
gsp antagonist = qHTS for Antagonists of gsp, the Etiologic Mutation Responsible for Fibrous Dysplasia/McCune-Albright Syndrome: qHTS. gsp-mutant cells, cAMP HTRF, 30 min; control for the full effect not named in the record. 340,000 tested, 0.4% active. Potency, µM (highest dose often 76.9 µM), without a hit: top-dose activity change, negative = inhibition, most hits filed as inhibitors. AID 624288, 2012; active = falling curve of any shape with a large fitted effect; inconclusive = falling curve, mostly with a smaller effect; inactive = flat or rising curve; cell line not stated here;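 also: intracellular cAMP measured with PDE inhibitor Ro 20-1724 present during compound exposure; potency is read from the fitted curve at half-maximal effect; % is scaled to controls: 0 for no effect and ±100 for the full control effect; nearly all actives have a fitted effect of over 65% in size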
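Measurement of cellular cAMP by homogeneous time-resolved fluorescence following a 30 min compound exposure at 37C. The PDE inhibitor […] was present throughout; the assay buffer was DPBS with 0.05% BSA and 0.005% Tween 20.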
CtBP-E1A blk = qHTS Assay for Inhibitors of the CtBP/E1A Interaction; activity change, % (test concentration not listed); AlphaScreen GST-E1A/His-CtBP binding, 1536-well; stronger effect = lower value; control for the full effect not named in the record; CtBP / adenovirus E1A interaction (AlphaScreen); 340,000 tested, 0.49% active; AID 651724, 2012; in the data active means activity change below about -65%; inconclusive means about -30% to -65%; inactive means above about -30%; also: % is scaled to controls: 0 for no effect and ±100 for the full control effect; compound concentration not given in the record
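GST-E1A and His-tagged CtBP (125 nM each as 5X stock) were preincubated with pin-transferred compound for 2 h at 37 °C in the dark, then glutathione donor and nickel acceptor beads were added for 1 h before AlphaScreen reading.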
* hit, by the source's call; ? = inconclusive; nt = not tested or not shown; & = joins results of further samples; [ ] = another dose, or the depositor's remark.

cpd | Six1-Eya2 inh | D2 PAM | gsp ag | gsp antagonist | CtBP-E1A blk | D2 agonist | canonical_smiles
1 | 2 | 0 | 17% | 14% | 6 | 3.5 | CCOc1ccc(NC(=O)COC(=O)C2C3CC4OC(=O)C2C4C3)cc1 (configuration not stated)
2 | 0 | -9 | -4%[15.4 µM] | 4% | -1 | 3.1 | COc1cccc(CN2CCNC(=O)C2CC(=O)N(C)C2CCOCC2)c1OC (configuration not stated)
3 | 12 | -1 | 23% | 1% | 2 | 0.8 | COc1ccccc1CNC(=O)CN1NS(=O)(=O)c2ccccc2C1=O
4 | -16 | -17 | ? | 1% | 1 | -2.4 | Cc1ccc(NC(=O)c2ccc(NCc3ccco3)c([N+](=O)[O-])c2)cc1Cl
5 | ? | -8 | -15%[15.4 µM] | -23% | nt | 0.0 | O=C(Cn1nc2ccccc2n1)N/N=C/c1cc([N+](=O)[O-])ccc1O
6 | -30 | -10 | -23%[15.4 µM] | -9% | -4 | 2.3 | COc1ccc(C(C(=O)Nc2ccc3c(c2)OCO3)N(C)C(=O)Cc2c[nH]c3ccccc23)cc1 (configuration not stated)
7 | -4 | -7 | -28%[15.4 µM] | nt | -11 | -2.2 | Cc1c(C(=O)NN2CCOCC2)oc2c1ccc1ccccc12
8 | -17 | -1 | -10%[15.4 µM] | 7% | -9 | 0.3 | COc1cc(/C=N/NC(=O)c2ccccn2)cc2c1OCO2
9 | 3 | -8 | 20% | -12% | 2 | -1.4 | COc1ccc(Cl)cc1N=Cc1c(O)cc(C)oc1=O
10 | -2 | -3 | -90%[inhibitor] | -2% | 2 | -3.7 | CCOc1ccc(NC(=O)CSc2nc3ccccc3nc2N2CC(C)OC(C)C2)cc1 (configuration not stated)
11 | -12 | -5 | 6%[15.4 µM] | 7% | -6 | -2.0 | NNC(=O)c1cncc(Br)c1
12 | 1 | 0 | -1%[15.4 µM] | -4% | 3 | -3.1 | O=C(COc1cccc(Br)c1)N/N=C1\CCCc2ccccc21
13 | -8&-10 | -4&-32 | 14%&-41% | 6% | -7&-9 | -1.9&-3.1 | CCN1CCN(Cc2ccc(NC(=O)c3cc(NC(=O)c4ccno4)cc(OC)c3)cc2C(F)(F)F)CC1
14 | 1 | -20 | nt | nt | 3 | -6.4 | CCNC(=O)C1(C)CCCN(Cc2cc(-c3ccccc3)n(C)n2)C1 (configuration not stated)
15 | 6 | -7 | -4% | 9% | nt | 6.0 | O=c1c2ccccc2nc2n1C(CBr)CS2 (configuration not stated)

Overlap with the part before: 2 compounds, followed by the next part.
cpd | Six1-Eya2 inh | D2 PAM | gsp ag | gsp antagonist | CtBP-E1A blk | D2 agonist | canonical_smiles
14 | 1 | -20 | nt | nt | 3 | -6.4 | CCNC(=O)C1(C)CCCN(Cc2cc(-c3ccccc3)n(C)n2)C1 (configuration not stated)
15 | 6 | -7 | -4% | 9% | nt | 6.0 | O=c1c2ccccc2nc2n1C(CBr)CS2 (configuration not stated)
16 | -7 | -16 | -49%[inhibitor] | 3% | -12 | -4.9 | CCN1CCN(C(=O)c2ccc(Cl)c(S(=O)(=O)N3CCCCC3)c2)CC1
17 | -15 | -1 | -25% | -23% | 2 | -4.7 | COc1ccc(OCc2nnc3n2N=C(c2ccc(Br)cc2)CS3)cc1
18 | -9 | -4 | 16% | 5% | nt | ? | Cc1nc(-c2ccccc2)sc1C(=O)NN
19 | -8 | -2 | 18% | ? | -12 | 1.8 | COc1ccc(-c2oc3cc(OC(C)=O)cc(OC(C)=O)c3c(=O)c2OC)cc1
20 | 0 | -24 | 7% | 13% | 4 | -1.4 | O=C(Nc1ccc2c(c1)OCO2)C1CCN(c2ccc(S(=O)(=O)N3CCOCC3)cc2)CC1
21 | 1 | -12 | -9% | 16% | 6 | -2.3 | CC(C)C12CCC(C(=O)O)C(C1)C(=O)O2 (configuration not stated)
22 | 3 | -12 | 28% | nt | -2 | -9.9 | COc1cccc(OC)c1C(=O)N1CCN(Cc2ccccc2F)CC1
23 | 2 | -14 | -34%[inhibitor] | 11% | 6 | -1.4 | CCN(CC)CCCNC(=O)CCC(=O)Nc1ccc2nc(N3CCC(C)CC3)cc(C)c2c1
24 | -1 | -25 | 0%[15.4 µM] | nt | -12 | -0.1 | CC(C(=O)NC1CCCCCC1)n1cc([N+](=O)[O-])cn1 (configuration not stated)
25 | -1 | -32 | ? | -17% | 3 | -3.3 | O=C(C(c1ccccc1)c1ccccc1)N1CCN(Cc2ccc(Br)cc2)CC1
26 | -15 | -5 | 9% | -16% | 0 | -1.8 | O=C(O)c1cc([N+](=O)[O-])cc2c1C=Cc1ccccc1O2
27 | -7 | -23 | -10% | -1% | 7 | 0.2 | COc1cc2c(cc1OC)CN(Cc1cc(OC)c3c(c1)OCO3)CC2
28 | 0 | 5 | -47%[inhibitor] | -11% | -1 | 1.3 | COc1ccccc1N(CC(O)Cn1c(C)nc2ccccc21)S(=O)(=O)c1ccccc1 (configuration not stated)
29 | 16 | -6 | 9%[15.4 µM] | 6% | 2 | -5.0 | NC1=NC(=O)C(Cc2ccccc2)S1 (configuration not stated)
30 | 15 | -13 | 4%[15.4 µM] | -6% | 5 | -3.3 | CCCOC(=O)C1=C(C)NC2=C(C(=O)CC(C)(C)C2)C1c1cccnc1 (configuration not stated)
31 | ? | 13 | ? | -16% | -3 | 8.4 | Cc1c(NC(=O)/C(C#N)=C/c2ccc(-c3ccccc3Cl)o2)c(=O)n(-c2ccccc2)n1C
32 | 3 | -19 | -2%[15.4 µM] | -2% | -2 | -1.3 | CC(C)(C)c1ccc(C(=O)NCC(=O)OCCN2C(=O)c3ccccc3C2=O)cc1
33 | -1 | -9 | nt | 2% | -16 | -1.9 | Cc1ccc(S(=O)(=O)N2[C@@H](c3ccc(C(C)C)cc3)C(C(=O)O)=C[C@H]2C(C)(C)C)cc1
34 | -6 | 17 | 0%[15.4 µM] | -1% | 0 | -2.8 | O=C(COc1ccccc1Cl)Nc1ccc2[nH]c(=O)[nH]c2c1
35 | -10 | 0 | -6% | -9% | -6 | 1.4 | COc1ccccc1/C(C)=N/Oc1cc(N)cc([N+](=O)[O-])c1
36 | 0 | -9 | ? | -10% | -8 | 0.2 | CCOC(=O)c1cnc2c(C)c(C)ccc2c1Nc1ccc(S(=O)(=O)Nc2ncccn2)cc1
37 | -2 | -8 | ? | 12% | 3 | -5.5 | O=C(CC1NCCNC1=O)OCCCc1ccccc1 (configuration not stated)
38 | -3 | -6 | -8%[15.4 µM] | 2% | 0 | 0.3 | COc1ccc(C(=O)NCCc2c[nH]c3ccc(OC)cc23)cc1
39 | 12 | -4 | ? | -5% | 2 | 1.4 | COc1ccc(-n2nnc3c(SCc4ccccc4)ncnc32)cc1
40 | 4 | -1 | -23% | 13% | 3 | -3.3 | O=C1OCC2=C1C(c1ccccc1)CC(=O)N2c1ccc(F)cc1 (configuration not stated)
41 | -8 | -1 | -21% | 8% | nt | 6.6 | Cn1cnnc1SCC(=O)Nc1ccc(S(N)(=O)=O)cc1
42 | 0 | -8 | 2% | -5% | 1 | -0.6 | CCOC(=O)c1ccc(-n2c(CN3CCOCC3)nc3ccc([N+](=O)[O-])cc3c2=O)cc1
43 | 5 | 0 | -17%[15.4 µM] | -4% | -2 | -2.6 | CN(C)S(=O)(=O)c1cc(NC(=O)CN2CCOCC2)ccc1Cl
44 | 7 | -7 | 22% | 15% | 10 | -4.0 | S=C(NCc1ccccc1)NN1CCOCC1
45 | -3 | -4 | -2% | -15% | 1 | -1.5 | CSc1nnc(-c2cc3ccccc3cc2O)n1C

An excerpt of these results, in transposed form.
#35 COc1ccccc1/C(C)=N/Oc1cc(N)cc([N+](=O)[O-])c1
#39 COc1ccc(-n2nnc3c(SCc4ccccc4)ncnc32)cc1
#43 CN(C)S(=O)(=O)c1cc(NC(=O)CN2CCOCC2)ccc1Cl
#36 CCOC(=O)c1cnc2c(C)c(C)ccc2c1Nc1ccc(S(=O)(=O)Nc2ncccn2)cc1
#37 O=C(CC1NCCNC1=O)OCCCc1ccccc1 (configuration not stated)
#40 O=C1OCC2=C1C(c1ccccc1)CC(=O)N2c1ccc(F)cc1 (configuration not stated)
screen / no.	35	39	43	36	37	40
Six1-Eya2 inh	-10	12	5	0	-2	4
D2 PAM	0	-4	0	-9	-8	-1
gsp ag	-6%	?	-17%[15.4 µM]	?	?	-23%
gsp antagonist	-9%	-5%	-4%	-10%	12%	13%
CtBP-E1A blk	-6	2	-2	-8	3	3
D2 agonist	1.4	1.4	-2.6	0.2	-5.5	-3.3

(further entries)
cpd | Six1-Eya2 inh | D2 PAM | gsp ag | gsp antagonist | CtBP-E1A blk | D2 agonist | canonical_smiles
46 | 3 | -11 | -2%[15.4 µM] | 15% | 4 | -4.4 | Cc1onc(-c2ccccc2)c1-c1nc2cc(Cl)ccc2c(=O)o1
47 | -4 | -5 | 1% | 0% | -2 | -1.4 | COC(=O)Cc1[nH]n(-c2nc3ccccc3s2)c(=O)c1C(C)=O
48 | 6 | -13 | 25% | 1% | -3 | -2.2 | CCCc1ccc(NS(=O)(=O)c2c(C)oc(C)c2C(=O)OC)cc1
49 | -29 | 1 | 6%[15.4 µM] | -11% | ? | 1.7 | OCC1CCCN(C(=S)Nc2ccc(Nc3ccccc3)cc2)C1 (configuration not stated)
50 | -1 | -1 | -10% | 5% | -1 | 9.7 | Cc1ccc(CNC(=O)COC(=O)c2cc(=O)[nH]c3ccccc23)cc1
51 | 6 | -23 | -16% | ? | nt | -3.3 | COc1ccc(-c2c(C#N)sc(C(N)=O)c2-c2ccc(OC)cc2)cc1
52 | 1 | -4 | -18%[15.4 µM] | 12% | 7 | -2.7 | O=C(Nc1cnccn1)Nc1ccccc1Cl
53 | 29 | -3 | -1%[15.4 µM] | -10% | 12 | 2.9 | CCCCC1(C)NC(=S)N2N1C(=S)NC2(C)CCCC (configuration not stated)
54 | -5 | -11 | 3% | 8% | 18 | 6.2 | O=C(CN1CCN(c2ccccn2)CC1)Nc1ccccc1
55 | 7 | -12 | nt | 5% | 10 | -2.0 | CC(C)(C)OC(=O)N[C@H](C(=O)OC(C)(C)C)c1ccccc1
56 | 7 | -5 | 13% | 14% | 1 | -0.5 | CCOc1ccccc1NC(=O)CCS(=O)(=O)c1cccc2nonc12
57 | -3 | -11 | 1% | 5% | 8 | -3.3 | CSCCC(NC(=O)c1c(C)oc2c1CCCC2)C(=O)O (configuration not stated)
58 | 1 | 0 | -9% | ? | nt | 7.2 | CCOc1ccccc1CNC(=O)CCn1ccc2cc(S(=O)(=O)N3CCCCC3)ccc21
